PABP polyA inh – blocks human PABP binding to poly(A) RNA; fluorescence polarization; actives 1% (n = 290,000); inhibition, % at 35 µM; AID 2014; P11940;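 active means 50% or more with normal probe brightness, or confirmed in later tests; inconclusive means above 50% with abnormal brightness, or retests that disagree; inactive means below 50% or failed in later tests; about a fifth of its hits are not listed in these tables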;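 further: calls also rest on retests at 20 µM and on dose response follow-up; controls were probe without protein and protein plus probe with vehicle; some compounds called inactive have numbers as strong as hits; many hits fall short of the cut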
UUG fidelity – alters start codon recognition fidelity in yeast; S. cerevisiae UUG-firefly luciferase reporter, luminescence/redox ratio; activity score, % at 18.7 µM; actives 0.13% (n = 350,000);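 active means replicate mean at a twofold rise or more, about +100% in these data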;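 further: firefly luciferase made from a UUG start codon reports start codon fidelity; reporter light over untreated wells divided by growth signal over untreated wells; some hits fall short of that in this replicate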
CSC inhib – blocks cancer stem cells. inhibition, % at 7.5 µM. cancer stem cell-like cells viability, luminescence. actives 1.1% (n = 300,000);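 active means mean at 75% or more and at least half the replicates too; inconclusive means mean and replicates disagree; tested in HMLE shEcad cells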;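 further: 0% = median of negative and 100% = median of positive control wells; the first replicate is given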
Env fusion inh – HIV envelope-mediated fusion inhibition; HeLa-JRFL Env/CEM21 cell fusion, luciferase; inhibition, % at 12.3 µM; actives 1.1% (n = 360,000);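 active means mean replicate inhibition score of at least 50 and every replicate individually at or above 50; inconclusive means only one of the two criteria met; inactive means mean below 50 and not all replicates reaching 50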;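 further: 0% = plate neutral controls and 100% = maraviroc near 300 nM; one replicate is shown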
eIF4H inh – inhibitors of RNA binding by human eIF4H; eIF4H fluorescence polarization binding assay; inhibition, % at 35 µM; actives 0.94% (n = 290,000); AID 2012;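 active means 50% or more with normal probe brightness, or confirmed in later tests; inconclusive means above 50% with abnormal brightness, or retests that disagree; inactive means below 50% or failed in later tests; about a fifth of its hits are not listed in these tables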;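 further: calls also rest on retests at 20 µM and on dose response follow-up; 0% = protein and probe with vehicle and 100% = probe without protein; strong numbers were not always called active; many hits fall short of the cut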
Rce1 inh – blocks yeast Ras-converting enzyme; yeast membranes, quenched prenylated peptide cleavage fluorescence; calls only; actives 0.27% (n = 290,000);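 active means fall in fluorescence gain of 50% or more versus controls, with final raw signal at or below 3038400; inconclusive means same 50% fall but final raw signal above 3038400; inactive means fall in fluorescence gain under 50%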;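 further: plate controls were neutral control wells for no effect and wells lacking membranes for full effect; tested at 10 µM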
Target sequence (Q03530 whole entry, looked up): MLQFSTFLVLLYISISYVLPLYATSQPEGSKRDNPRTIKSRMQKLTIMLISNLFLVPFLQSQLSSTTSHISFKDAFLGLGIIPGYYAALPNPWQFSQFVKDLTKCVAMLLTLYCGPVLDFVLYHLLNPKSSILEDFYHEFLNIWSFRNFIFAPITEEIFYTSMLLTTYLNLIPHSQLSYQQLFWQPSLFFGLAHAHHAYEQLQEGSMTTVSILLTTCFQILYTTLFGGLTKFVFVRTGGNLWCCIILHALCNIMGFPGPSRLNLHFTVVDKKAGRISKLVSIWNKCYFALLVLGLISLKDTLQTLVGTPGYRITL
MT1-MMP act inh – inhibitors of human MT1-MMP activation; AID 651647; HT1080 RFP-PRO-GFP cells, GFP/RFP ratio fluorescence, overnight; percent of plate control window, DMSO zero; GFP/RFP ratio change, % at 20 µM; actives 0.061% (n = 360,000); P50281;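 active means GFP/RFP ratio change of at least 30% with cell ATP level not reduced by more than half and red fluorescence within 50% of control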; further: strong numbers were not always called active
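Assay system: HT1080 cells carrying an RFP-PRO-GFP reporter | Dosing: Single dose of 20 µM compound, 1% DMSO final | Incubation: Cells overnight before dosing, compound overnight, 37 °C, 5% CO2 | Evaluation: GFP/RFP fluorescence ratio | Control set: DMSO and RFP-L50D-GFP cell wells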
eIF4H inh retest – also measured in eIF4H inh; calls as there; inhibition, %; compound at 20 µM; confirmation average;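 mean of two retest wells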
PABP polyA inh retest – also measured in PABP polyA inh; calls as there; inhibition, %; compound at 20 µM; confirmation repeats;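 mean of two retest wells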
MT1-MMP act inh RFP – recorded beside MT1-MMP act inh, whose call it bears; RFP signal change, %; measured here: RFP expression control read;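 0 = vehicle wells; hits needed this value within 50% of zero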
Numbers without * were called inactive; i = inactive; ? = inconclusive; / = no result given; + = active, no number; & = joins results of further samples.

SMILES	PABP polyA inh	UUG fidelity	CSC inhib	Env fusion inh	eIF4H inh	Rce1 inh	MT1-MMP act inh	MT1-MMP act inh RFP	others
CC(=O)Nc1ccc(C(=O)CSc2nccc(=O)[nH]2)cc1	2	-13	8	16	0	i	0	-4
CN(Cc1ccc(F)cc1)C(=O)C(c1ccccc1)c1ccccc1	5	-9	10	26	-14	/	-4	-5
CC(=O)Nc1ccc(S(=O)(=O)N2CCN(c3cccc(C)c3C)CC2)cc1	-2	3	45	-47	-6	i	2	-23
Cc1ccc(C2/C(=C(/O)c3ccc(Br)cc3)C(=O)C(=O)N2Cc2ccco2)o1 (stereo unspecified)	20	/	2	/	24	i	-7	8
COc1cc2c(c(OC)c1OC)-c1c(cc3c(c1OC)OCO3)C1OC2[C@@H](C)[C@H]1C (stereo partly specified)	-9	-8	-2	-17	-1	i	3	0
Cc1cc(C(=O)OCC(=O)N2CCN(c3ccccc3)CC2)c2ccccc2n1	11	13	13	34	-9	i	-2	-2
CC1=Nc2cc(C(=O)NCCCOC(C)C)ccc2Sc2ccccc21	-8	-7	49	-1	-9	i	-1	-7
COc1ccc(/C=C(\C)C(=O)c2c(C)cc(C)[nH]c2=O)cc1	/	-3	19	26	/	i	-1	-1
COc1ccc(N(CCC#N)S(=O)(=O)c2cccc3nsnc23)cc1	12	-13	5	-19	0	i	-3	0
Cc1cccc2sc(NC(=O)CNS(=O)(=O)c3ccc(Br)s3)nc12	-7	9	15	-1	-15	/	3	5
CCC(=Nc1ccc(N)cc1)C1=C(O)C(C(=O)OC)C(C)(C)CC1=O (stereo unspecified)	115*	-9	-2	/	103*	i	27	23
Cc1ccccc1OCC(=O)Nc1nc(-c2ccncc2)cs1	/	-1	2	/	/	/	1	-11
COc1ccccc1-c1nc2cc3ccccc3cc2nc1-c1ccccc1OC	2	/	21	-16	3	i	-4	-3
O=C(OCCN1CCOCC1)c1ccc2c(c1)OCCO2	-5	-11	2	-71	-4	i	2	3
O=C(COC(=O)C1(c2ccc(F)cc2)CCCC1)NCc1ccc2c(c1)OCO2	-1	8	14	21	1	i	-5	-13
CCOC(=O)C1C(=O)NC(N2CCc3ccccc32)=NC1c1ccccc1 (stereo unspecified)	6	-6	9	/	-1	i	-1	-1
CCN1C(=O)/C(=C2\SC(=S)N(c3c(C)n(C)n(-c4ccccc4)c3=O)C2=O)c2ccccc21	4	-19	0	-18	0	i	-7	-2
CCOC(=O)c1cc2c(=O)n3ccccc3nc2n(Cc2ccco2)c1=NC(=O)c1ccccc1OC	24	-30	-2	7	51*	i	-18	-5	eIF4H inh retest=66*;PABP polyA inh retest=34
O=C(NCC1(N2CCCCC2)CCCCC1)c1cccc(S(=O)(=O)Nc2ccccc2Cl)c1	/	-9	/	14	/	/	2	3
CCN1CCN(CC2COc3ccccc3O2)CC1 (stereo unspecified)	7	-4	-12	-8	10	i	-1	1
CCc1cccc(CC)c1-n1c(SCC(=O)N2CCCc3ccccc32)nc(O)cc1=O	/	-19	-26	6	/	/	/	/
COc1cccc(C(O)c2nc(-c3cccc(C(=O)O)c3)cs2)c1 (stereo unspecified)	/	-9	/	-8	/	/	-2	1
Nc1cc(=O)[nH]c(SCC(=O)N2CCCc3ccccc32)n1	-3	-20	-1	-25	12	i	-4	2
OC[C@@H]1CN(Cc2ccco2)C[C@H](n2cnc3c(N4CCOCC4)ncnc32)O1	/	-7	/	18	/	/	0	6
CC1(C)CC(=O)C(C=NCc2ccc3c(c2)OCO3)=C(O)C1	-1	-24	-19	-43	2	i	-1	-1
CC(Sc1nc2ccccc2s1)C(=O)N(C)Cc1ccccc1 (stereo unspecified)	7	3	-1	4	-9	i	-2	-6
COc1ccccc1CN(CC(=O)NCc1ccc2c(c1)OCO2)C(=O)c1csnn1	-7	-6	-19	-6	-4	/	0	0
C/C=C/c1ccc(OCC(=O)Nc2ccc(OC)c(OC)c2)c(OC)c1	7	/	21	19	1	i	3	-14
Cc1ccc(C(C)C)cc1OCCCCN1CCCC1	16	-4	55	/	1	i	-4	0
CCCCn1nnc(NC(=O)COc2ccc(Cl)c(C)c2)n1	4	/	-4	-82	-12	i	4	-1
Cn1ccnc1C1CCCCN1Cc1nc(-c2ccc(Cl)cc2)no1 (stereo unspecified)	-12	/	-2	1	-5	i	-2	-3
CCCN1CCN(C(=O)CCNC(=O)Cn2cnc3ccccc3c2=O)CC1	0	36	0	-3	-12	i	-5	3
O=C(NCCO)/C(=C\c1ccc2c(c1)OCO2)NC(=O)c1ccc(Br)cc1	-3	/	-6	-11	4	i	-1	5
Cc1cc(NC(=O)/C(C#N)=C/c2ccc(-c3ccc(SC(F)F)cc3)o2)n(-c2ccccc2)n1	14	-23	65	-22	2	i	-98	-1
COc1ccc(Cl)cc1NC(=O)COC(=O)C1CCCCC1	/	-5	/	1	/	/	1	3
Cc1ccc(NC(=O)CN(C)S(=O)(=O)c2cnc[nH]2)c(C)c1	-9	14	3	-11	-7	i	1	0

Three entries from above, arranged by heavy-atom count, smallest number first:
SMILES	PABP polyA inh	UUG fidelity	CSC inhib	Env fusion inh	eIF4H inh	Rce1 inh	MT1-MMP act inh	MT1-MMP act inh RFP	others
CC(=O)Nc1ccc(C(=O)CSc2nccc(=O)[nH]2)cc1	2	-13	8	16	0	i	0	-4
CC1(C)CC(=O)C(C=NCc2ccc3c(c2)OCO3)=C(O)C1	-1	-24	-19	-43	2	i	-1	-1
COc1cccc(C(O)c2nc(-c3cccc(C(=O)O)c3)cs2)c1 (stereo unspecified)	/	-9	/	-8	/	/	-2	1

(next part)
SMILES	PABP polyA inh	UUG fidelity	CSC inhib	Env fusion inh	eIF4H inh	Rce1 inh	MT1-MMP act inh	MT1-MMP act inh RFP	others
COCCCNC(=O)c1cn(Cc2c(F)cccc2Cl)nn1	-4	1	/	-22	-4	i	-2	0
CCCNC(=O)c1ccccc1NC(=O)C1=CSCCO1	18	4	-12	8	-3	i	-3	0
Cc1c(NC(=S)NC(=O)c2ccc(-c3ccc(Cl)cc3)o2)cccc1C(=O)O	-32	/	/	10	-4	i	4	-9
CCOc1ccc(S(=O)(=O)n2ccc(C)n2)c2ccccc12	6	/	-7	/	-4	/	-7	0
CCN(C(=O)Cn1ccc(C(F)(F)F)n1)c1c(N)n(Cc2ccccc2)c(=O)[nH]c1=O	/	-14	/	7	/	/	-1	4
CCn1c(SCC(=O)Nc2nnc(C)s2)nc2c(c1=O)SC(C)C2 (stereo unspecified)	-4	-9	-17	6	4	i	2	0
C[C@]12CCC(=O)C=C1CCC1C2CC[C@@]2(C)C1CCC21OCCO1 (stereo partly specified)	/	-1	-13	-54	/	/	-1	-3
Cn1cc([N+](=O)[O-])c(C(=O)N2CCCCCC2)n1	5	-15	-3	0	4	i	-1	4
O=C(c1ccc(NS(=O)(=O)c2cccc(C(F)(F)F)c2)cc1)N1CCCC1	-9	7	-14	i	-4	i	-1	-4
CC(O)CNC1c2ccccc2CC1O (stereo unspecified)	/	14	/	17	/	/	2	1
COC(=O)c1ccc(C(=O)OC)c(NC(=O)CN(C)Cc2ccccc2)c1	-5	-17	-2	5	-13	i	-5	-6
CCn1c(SCC(=O)N/N=C(\C)c2ccncc2)nnc1-c1ccccc1	-3	/	/	-2	4	i	2	0
O=C(Nc1ncnc2c1ncn2[C@@H]1O[C@H](/C=C/C(=O)N2CCN(c3ccc(F)cc3)CC2)[C@@H](O)[C@H]1O)c1ccccc1	/	-1	/	11	/	/	0	0
N#C/C(=C\c1coc2ccccc2c1=O)C(N)=S	-4	/	1	6	6	i	-15	7
O=C(NCCCCCCNC(=O)OC1CCS(=O)(=O)C1)OC1CCS(=O)(=O)C1 (stereo unspecified)	4	-9	-15	9	-3	/	-1	3
COc1cccc(-c2csc3nnc(SCC(=O)NCc4cccs4)n23)c1	2	-21	-16	-45	0	i	5	2
Cc1ccc(NC(=S)NC(CO)C(O)c2ccc([N+](=O)[O-])cc2)cc1 (stereo unspecified)	-5	/	-3	-24	14	i	2	4
O=C(O)CCCCCCCCc1cn(CN2C(=O)c3ccccc3C2=O)nn1	15	-1	-2	/	1	i	7	4
CCOc1ccc(C(Nc2ccc(C)cc2)P2(=O)OCC(C)(C)CO2)cc1 (stereo unspecified)	36*	-20	-4	/	98*	i	0	-2	eIF4H inh retest=95*;PABP polyA inh retest=51*
CC(=O)NCCc1nc2ccccc2n1Cc1cccc(C)c1	-3	/	-2	18	-2	i	2	-1
O=C(c1cccs1)N1C(=O)c2cccc3cccc1c23	-9	/	/	13	6	i	4	2
N#CC(/C(=N/S(=O)(=O)c1cccs1)c1ccccc1)c1nc2ccccc2[nH]1 (stereo unspecified)	17	-8	23	1	8	+	4	-5
CN1CCN(c2ccc(S(=O)(=O)N3CCCCC3)cc2N)CC1	/	-1	/	-5	/	/	2	1
Cc1cccc(C)c1NC(=O)CSc1nc(C)c(CC(=O)c2ccc(Br)cc2)c(C)c1C#N	-7	-18	8	/	-5	i	-2	-2
O=C(CCSc1nnc(-c2ccncc2)o1)Nc1ccc(F)cc1	-8	-25	-18	3	-8	i	3	3
Cc1cc(F)ccc1S(=O)(=O)N1CCCOC1CNC(=O)C(=O)NC1CCCCC1 (stereo unspecified)	6	-4	5	-15	13	i	2	0
O=C(NCC(c1ccco1)N1CCOCC1)c1ccc(F)c(F)c1 (stereo unspecified)	/	-20	/	-184	/	i	-4	-1
COc1ccc(N2CC(NS(=O)(=O)c3ccc4ccccc4c3)CC2=O)cc1 (stereo unspecified)	/	/	-6	2	/	i	1	-8
CCn1c(SCC(=O)Nc2nc(C)cs2)nnc1C(C)NC(=O)c1ccccc1 (stereo unspecified)	-2	2	6	/	-1	i	-7	2
CCOC(=O)NC(=O)CSc1nc(C)cc(C(F)(F)F)c1C#N	34	-6	-3	-31	23	i	-29	-3
Cc1cc(C)c(S(=O)(=O)Nc2ccc(O)c(Sc3ncn[nH]3)c2)c(C)c1	-6	8	-8	-19	2	i	-2	-1
Cc1ccc(-n2[nH]c(C)c(C=Nc3ccc(S(=O)(=O)Nc4nccs4)cc3)c2=O)c(C)c1	-1	/	-3	/	-12	i	/	/
Nc1ccc(-c2ccc(C(=O)O)s2)cn1	8	/	19	-17	3	?	0	4
C/C(N)=C(/C#N)C(=O)COC(=O)C(NS(=O)(=O)c1ccc(Cl)cc1)C(C)O (stereo unspecified)	3	-9	/	-16&-112	0	i	3&-2	4&-5
Cc1ccc(N2CC(C(=O)N3CCCc4ccccc43)CC2=O)cc1 (stereo unspecified)	-8	-4	-16	/	0	i	-1	-1
CCOC(=O)C1CCN(S(=O)(=O)c2ccc3c4c2CC(=O)N4CC(C)S3)CC1 (stereo unspecified)	-10	-6	7	3	-2	i	-2	-5
CC(=O)c1c(C)[nH]c(C(=O)OCC(=O)NCCC(C)C)c1C	-7	/	19	38	0	i	3	-17
COc1ccc(Cl)cc1S(=O)(=O)N1CCCC1	7	/	-14	/	-6	i	9	2
O=C(c1ccccc1)c1c[nH]c(C(=O)C(Cl)(Cl)Cl)c1	4	/	-12	6	-8	i	-3	-3
Cc1cccc(C(=O)Nc2ccc(C(=O)c3ccccc3)cc2)c1	/	-32	9	-7	/	i	4	-6
Cc1ccc(S(=O)(=O)NN2C(=O)c3ccccc3NC2(C)C)cc1	71	/	4	3	7	i	1	3	eIF4H inh retest=2;PABP polyA inh retest=9
CCCC1=[N+](CC(=O)c2ccccc2)CCn2cccc21	12	/	-14	4	16	i	-13	7
O=C(Nc1ccc(S(=O)(=O)NC2=NCCCCC2)cc1)C1COc2ccccc2O1 (stereo unspecified)	8	/	-5	-5	-4	i	-3	2

Source: PubChem (several laboratories)
